RVFV N-RNA FP: RVFV nucleocapsid-RNA interaction inhibition; RVFV N-RNA binding, fluorescence polarization; hits give low values; % bound, % (concentration not given with the values); actives 0.1% (n = 20,000);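 active means between 0 and 58% in either replicate with normal brightness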;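 further: 100 nL library stock added to about 12 µL; 100% = protein and probe without compound and 0% = probe alone; numbers are from one replicate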
Target sequence (P21700 whole entry, looked up): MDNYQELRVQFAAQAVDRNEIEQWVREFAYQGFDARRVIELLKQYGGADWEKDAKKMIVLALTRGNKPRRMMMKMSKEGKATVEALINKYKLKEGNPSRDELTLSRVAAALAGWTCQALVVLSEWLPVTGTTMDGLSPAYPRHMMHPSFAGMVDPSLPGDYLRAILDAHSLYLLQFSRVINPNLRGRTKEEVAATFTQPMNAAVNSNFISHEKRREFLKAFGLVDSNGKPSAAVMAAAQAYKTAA
* marks the source's active call; other numbers are inactive results; & = joins results of further samples. The list is partial; the hit share may differ from the screen's.

canonical_smiles	RVFV N-RNA FP
CN1CCN(CCC(=O)N/N=C/c2ccccc2)CC1	101
O=S(=O)(c1ccc(Cl)cc1)N1CN(Cc2cccs2)c2nc3ccccc3nc21	96
CC(N)C(=O)Nc1ccc2c(c1)Cc1ccccc1-2 (stereo not drawn)	93
O=c1ccnc(SCc2ccc(CSc3nccc(=O)[nH]3)cc2)[nH]1	89
CCc1ccccc1OCCSc1ncccn1	99
COc1cc(C(=S)N2CCCC2)cc(Cl)c1O	97
C/C(=C\C(=O)c1ccccc1)Nc1cccc(O)c1	91
CC1CC(C)CN(C(=O)Nc2cccc(Cl)c2)C1 (stereo not drawn)	95
Cn1ncc(NC(=O)Nc2ccc(F)cc2F)c1C(N)=O	99
O=C(COc1ccc2oc(-c3ccccc3)cc(=O)c2c1)N1CCCCC1	108
O=C(OCc1cccc(Cl)c1)c1ccc2c(c1)OCO2	97
NC(=O)c1ccccc1NC(=O)CS(=O)(=O)Cc1ccccc1	95
CCC1N(c2ccccc2)CCN1c1ccccc1	82
Cc1cc(C)c(/C=C(\C#N)C(N)=O)c(C)c1	94
c1cc2c(nn1)CCc1nonc1-2	94
CN(C)C(=S)Nc1ccccc1OC(F)F	96
COC(=O)CSC1=NS(=O)(=O)c2ccccc2N1	92
[N-]=[N+]=c1c(=O)ccc2c(=O)c3ccccc3c(=O)c1=2	84
COc1nc2ccccc2nc1CCC(=O)NC1CCCCCC1	90
CC1CCN(CC(=O)Nc2cccc(C(F)(F)F)c2)CC1	94
COC(=O)CC1(CC(=O)OC)C(=O)N(C)C(=O)N(C)C1=O	90
N/N=c1/nc2sccn2c2ncccc12	99
Cn1c(SCc2cccc(C#N)c2)nc2ccccc2c1=O	99
O=C(c1ccco1)N1N=C(c2ccccc2)CC1c1ccccc1 (stereo not drawn)	90
CCCCN(CC)C(=O)c1ccccc1SCC	79
Cc1ccc(Cn2nnc(-c3ccccc3C)n2)cc1	97
CCCc1c(C)[nH]c2ccc(C(=O)O)cc2c1=S	86
CC(CCc1ccccc1)NC(C)C(O)c1ccc(O)cc1 (stereo not drawn)	91
CC(C)CC(=O)Nc1cc(C(F)(F)F)cc(C(F)(F)F)c1	93
Cc1ccc(O)c([C@H](CCN(C(C)C)C(C)C)c2ccccc2)c1	97
Cc1nc(Nc2ccc(Cl)cc2Cl)c(C#N)c(N(C)C)n1	90
CCS(=O)(=O)c1ccc(C(=O)Nc2nccs2)cc1	96
CCOC(=O)C1CCCN(Cc2cccs2)C1 (stereo not drawn)	95
Cc1cc(=O)[nH]n(CCO)c1=O	109
N#CC(C#N)=CNc1ccccc1C(=O)NCCCn1ccnc1	101
C#CC(C)(C)OC(=O)Nc1ccccc1	97
CN(CC(=O)Nc1nc2ccccc2s1)S(=O)(=O)c1ccccc1	93
CCC(=O)Nc1ccc(-c2ccc3nncn3n2)cc1	96
CNC1(C)C2CCC(C2)C1(C)C (stereo not drawn)	89
CCOC(=O)c1n[nH]n2c1nc(=S)c1ccccc12	97
Cn1c(N)c(S(=O)(=O)N2CCc3ccccc3C2)c(=O)n(C)c1=O	102
O=C1CCCN2C(=N1)SC(=S)N2CN1CCN(Cc2ccccc2)CC1	98
Cc1cn(CC(C)C)c(=O)n(CC(C)C)c1=O	86
CCOC(=O)c1ccc(Oc2nc(NC(C)C)nc(NC(C)(C)C)n2)cc1	89
C=CCn1c(=S)[nH]c2sc3c(c2c1=O)CCN(C(=O)OCC)C3	93

A second format for four compounds above:
> CCOC(=O)c1ccc(Oc2nc(NC(C)C)nc(NC(C)(C)C)n2)cc1
  RVFV N-RNA FP: 89

> N#CC(C#N)=CNc1ccccc1C(=O)NCCCn1ccnc1
  RVFV N-RNA FP: 101

> O=C1CCCN2C(=N1)SC(=S)N2CN1CCN(Cc2ccccc2)CC1
  RVFV N-RNA FP: 98

> CCOC(=O)C1CCCN(Cc2cccs2)C1 (stereo not drawn)
  RVFV N-RNA FP: 95

Continued.
canonical_smiles	RVFV N-RNA FP
C[C@@H](c1ncncc1F)[C@](O)(Cn1cncn1)c1ccc(F)cc1F	95&101
O=C(CCN1CCOCC1)N/N=C/c1cccnc1	98
O=C1/C(=C/c2ccccc2)C[C@@]2(O)[C@H]3Cc4ccc(O)c5c4[C@@]2(CCN3CC2CC2)[C@H]1O5	96
CN1C(=O)C(=Cc2ccc(O)cc2)C(=O)N(C)C1=O	79
Cc1ccc2nc3c(cc2c1)c(=O)oc1ccccc13	99
O=C(Nc1ccccc1)OCC1CCCN2CCCCC12 (stereo not drawn)	96
O=S(=O)(c1cccc2c(I)cccc12)N1CCCNCC1	105&108
S=c1[nH]nc(-c2ccncc2)n1/N=C/c1cccnc1	94
O=C(O)CCCN1C(=O)C2C3c4ccccc4C(c4ccccc43)C2C1=O (stereo not drawn)	90
CCCCN1C(C)=CC(=C2C(=O)NC(=S)NC2=O)C=C1C	96
S=C(Nc1ccc2c(c1)OCCO2)Nc1ccc2c(c1)OCO2	93
Cc1ccc(C(=O)c2coc3c2cc(O)c2ccccc23)cc1	95
COC(=O)CNC(=O)c1cccc(F)c1	99
Cc1ccc(N(C(C)C(=O)O)S(C)(=O)=O)cc1C (stereo not drawn)	100
CCOC(=O)c1cc2c(=O)n3ccccc3nc2n(Cc2ccccc2)c1=NC(C)=O	99

Exported as labelled records: part of the list above
> CCCCN1C(C)=CC(=C2C(=O)NC(=S)NC2=O)C=C1C
  RVFV N-RNA FP = 96
> S=C(Nc1ccc2c(c1)OCCO2)Nc1ccc2c(c1)OCO2
  RVFV N-RNA FP = 93
> Cc1ccc(C(=O)c2coc3c2cc(O)c2ccccc23)cc1
  RVFV N-RNA FP = 95
> COC(=O)CNC(=O)c1cccc(F)c1
  RVFV N-RNA FP = 99

Other results follow:
Structure | RVFV N-RNA FP
C=CCn1c(=N)c(-c2nc3ccccc3s2)cc2c(=O)n3ccccc3nc21 | 103
COc1ccc(OC(C)C(=O)NCCC2=CCCCC2)cc1 (stereo not drawn) | 102
CC12CCC(=O)C=C1CCC1C2CCC2(C)C(O)CCC12 (stereo not drawn) | 95
CCN(CC)CCNC(=O)c1c(C)[nH]c(/C=C2\C(=O)Nc3ccc(F)cc32)c1C | 105
CC1CCCC(C)N1C(=O)CSc1nnc(-c2ccccc2)n1N (stereo not drawn) | 92
O=c1c(=NNc2nn[nH]n2)c(=O)c2ccccc12 | 94
CC(C)[N+]1(C)C2CCC1CC(OC(=O)C(CO)c1ccccc1)C2 (stereo not drawn) | 93
O=C(CCCN1C(=O)CCC1=O)Nc1ccc2c(c1)OCCO2 | 96
FC(F)(F)c1cc(-c2ccco2)nc(N2CCCC2)n1 | 92
Cc1onc(-c2c(Cl)cccc2Cl)c1/C(N)=N/OC(=O)N(C)C | 85
O=C1NC(=O)N(C2CCCCC2)C(=O)/C1=C\c1ccc(-c2ccc(C(=O)O)cc2)o1 | 77
Cc1cccc(NC(=O)CSc2ncnc3c2oc2ccccc23)c1 | 97
COC(=O)c1cc(=O)n2c(-c3cccs3)nnc2s1 | 90
COc1ccc(C(=O)NCc2nnc(SCc3nc4ccccc4c(=O)[nH]3)n2C)cc1 | 98
Cc1cc(C(=O)NNc2ccc(C(C)C)cc2)n(C(C)(C)C)n1 | 98
CCN1C(=O)/C(=C2\SC(=Nc3cccc(Cl)c3C)NC2=O)c2ccccc21 | 95

Pulled by structure from the list above:
Structure | RVFV N-RNA FP
COc1ccc(C(=O)NCc2nnc(SCc3nc4ccccc4c(=O)[nH]3)n2C)cc1 | 98
Cc1onc(-c2c(Cl)cccc2Cl)c1/C(N)=N/OC(=O)N(C)C | 85

Next section
Structure | RVFV N-RNA FP
O=C1C(CCS(=O)c2ccccc2)C(=O)N(c2ccccc2)N1c1ccccc1 (stereo not drawn) | 95
CC(C)(CO)C(O)C(=O)NCCC(=O)NCCSSCCNC(=O)CCNC(=O)C(O)C(C)(C)CO (stereo not drawn) | 96
O=C(CSc1nnc(-c2ccccc2)n1-c1ccccc1)N1CCCC1 | 91
COc1cccn(Cc2nnc(SCc3ccc(Cl)cc3)n2C)c1=O | 88
COc1cccc(-n2c(N)cc(=O)nc2SCC(=O)N2CCN(c3ccccc3)CC2)c1 | 90
CCN(CC)C(=O)Cn1cc(S(=O)(=O)CC(=O)NC2CCCC2)c2ccccc21 | 90
CC(C)C(=O)NC(=S)Nc1ccc(Cl)cc1 | 95
COc1ccc(/C=C(\C#N)C(N)=S)cc1 | 104
N#CCSc1cn(CC(=O)N2CCCC2)c2ccccc12 | 92
COc1ccc(OC)c(S(=O)(=O)NC2CC(=O)N(c3ccc(C)c(C)c3)C2)c1 (stereo not drawn) | 95
COc1ccc(Nc2ncc(C#N)c(Nc3ccccc3)c2C#N)cc1 | 97
O=C(/C=C/c1ccccc1)Nc1ccccc1N1CCCC1 | 104
O=S(=O)(c1cccc(C(F)(F)F)c1)N1CCN(S(=O)(=O)c2cccc(C(F)(F)F)c2)CC1 | 100
COc1ccc(C2c3cc(OC)c(OC)cc3CC(=O)N2NC(=O)c2ccco2)cc1 (stereo not drawn) | 114
O=C(Nc1ccc(NC(=O)C2CC2)cc1)C1CC1 | 103
O=C(O)c1cccc(Nc2ccnc3cc(Cl)ccc23)c1 | 89
Cc1ccc(C)n1-c1nn(S(=O)(=O)c2cccc3cccnc23)c2cccc(F)c12 | 92
O=S(=O)(c1ccc(NC(=S)NCc2ccco2)cc1)N1CCCC1 | 96
COC(=O)c1ccc(NC(=S)NC(=O)C2CC2)cc1 | 93
CN(C)c1ccc(Nc2cccc3nonc23)cc1 | 91
O=C(O)c1cc(=O)c2c(Cl)cc(Cl)cc2[nH]1 | 100
CN(C)c1nc(N)nc(-c2ccco2)n1 | 90
CC(=O)Nc1cccc(NC(=O)C2CC(=O)N(C3CCCCC3)C2)c1 (stereo not drawn) | 90
Cc1ccc2nc(SCC(=O)N(C)c3ccccc3)nc(=O)n2c1 | 98
CCn1c(CNC(=O)Cc2ccc(OC)cc2)nnc1SCCOc1ccccc1 | 100
O=S(=O)(O)CCS | 96
Fc1cccc(Cl)c1-n1cccc1 | 98
OCCN(Cc1ccccc1)Cc1c(Cl)cccc1Cl | 95
Cc1cc(-n2nc3ccccc3n2)c2oc(SCC(=O)NC(C)(C)C)nc2c1 | 98
O=C(Nc1cccc2ccccc12)OCC(F)(F)F | 94
CC(C)N1C(=O)/C(=C\c2cccs2)SC1=S | 90
CCN(CC)CCOc1ccc(C(=C(Cl)c2ccccc2)c2ccccc2)cc1 | 103
CN(C)CCS(=O)c1ccccc1 (stereo not drawn) | 100
COC(=O)c1sccc1NC(=O)c1csc2ccccc12 | 104
CCCn1c(=O)c2oc(C)cc2n(-c2ccccc2C)c1=O | 102
CC(C)Cc1ccc(C#N)c(SCC(=O)c2ccccc2)n1 | 93
NNC(N)=O | 93
COc1cc(C(=O)NC2CCCNC2)cc(OC)c1OC (stereo not drawn) | 108
CC(=O)O/N=C(\C)c1nccs1 | 101
COC(=O)c1sc2nc3c(c(C(F)(F)F)c2c1N)CN(C(C)=O)CC3 | 94
O=C(CN1C(=O)c2ccccc2C1=O)NC1CCCCC1 | 97
O=C1CNC(=S)N1CCC1=CCCCC1 | 94
O=C(CSc1ncnc2sc3c(c12)CCCC3)N/N=C/c1cccs1 | 93
COc1cc(C(=O)NC2CCS(=O)(=O)C2)cc(OC)c1OC (stereo not drawn) | 103
CCN1c2ccccc2NC2=C(C(=O)CC(C)(C)C2)C1c1ccccc1 (stereo not drawn) | 106
Nc1nnc(CC(=O)N/N=C/c2cccs2)s1 | 95
Cc1csc2nc(CCNC(=O)CC3CCCC3)cn12 | 97
C=CCn1c(COc2cccc3cccnc23)nnc1SCCC(=O)O | 100
Cc1ccccc1Cn1c(C)c(/C=C2\SC(N)=NC2=O)c2ccccc21 | 83
COc1ccc(-c2nc3nc4ccccc4nc3n2CC2CCCO2)cc1 (stereo not drawn) | 93
CCOC(=O)c1cc(C(=O)OC)c(C)nc1NCc1ccc2c(c1)OCO2 | 95
CC(C)(C)CC(=O)NC1CCCCCCC1 | 99
C#CCN1C(=O)S/C(=C/c2cc(C)n(-c3ccc(OC)cc3)c2C)C1=O | 105
O=c1cc(N2CCOCC2)oc2c1ccc1ccccc12 | 106
CC(C)(C)NC(=O)NCCC1CCCCN1S(=O)(=O)c1ccccc1 (stereo not drawn) | 89
CC(C)NC[C@@H](O)c1ccc(O)c(O)c1 | 102

Going on with the list:
Structure | RVFV N-RNA FP
CCS(=O)(=O)c1ccc(O)c(NC(=O)CC2(CC(=O)O)CCCC2)c1 | 97
CO/C(N)=N/C(=S)Nc1ccc(C(C)C)cc1 | 98
CSc1ccc(C2C3C(=O)NC(=O)C3ON2c2ccccc2)cc1 (stereo not drawn) | 101
O=C(Cn1nc2sc3ccccc3n2c(=O)c1=O)c1cccs1 | 97
CC(=O)[C@H]1CC[C@H]2[C@@H]3CC=C4C[C@@H](O)CC[C@]4(C)[C@H]3CC[C@]12C | 93
O=c1c2cnn(-c3ccccc3)c2nc(-c2cccs2)n1-c1ccc(Br)cc1 | 97
COc1cccc(N2CC(=O)N(/N=C/c3ccccn3)CC2=O)c1 | 98
Cc1ccc2nc(-c3ccc(NC(=O)C(C)C)cc3)oc2c1 | 85
NS(=O)(=O)c1ccc(CCNC(=S)NC2CCCC2)cc1 | 96
O=C(O)C1CC=CCC1C(=O)Nc1ccc(C(=O)N2CCCc3ccccc32)cc1 (stereo not drawn) | 99
O=C(CC1CCCCC1)NC1CCCC1 | 89
CN(C)C(=O)c1ccc(-c2cc(C(F)(F)F)n(C)n2)s1 | 100
CCOC(=O)c1c(C)c(C)c(C)[nH]c1=S | 102
Cc1ccc(-n2nnc3c(SCC(=O)Nc4cc(C)on4)ncnc32)cc1 | 94
